Assay outcomes (PubChem)
HIV TAR-Tat – TAR RNA-Tat peptide displacers, HIV-1, primary screen, biochemical, FRET, FAM/TAMRA-labeled Tat | 100,000 compounds, 0.6% hits | z-score (concentration not given with the values) | HIV-1 TAR RNA, Tat peptide displacement FRET; hits give high values;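 also: score is relative to mean and SD of negative controls; some compounds called inactive have numbers as strong as hits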
CDC25B-CDK2 inh – primary biochemical HTRF screen for blockers of M-phase inducer phosphatase 2 binding to CDK2/cyclin A | HTRF CDC25B-CDK2/CyclinA binding, anti-His/anti-Flag; hits give high values | P30305+P24941 | AID 1259370, 2018 | z-score (no concentration beside the values) | 94,000 compounds, 0.72% hits;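 also: score is relative to mean and SD of negative controls; strong numbers were not always called active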
* marks the source's active call; other numbers are inactive results; . = no result given.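 The calls were made as follows: active = z-score from 3 up in half or more of its runs; inactive = the rest.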

canonical_smiles,HIV TAR-Tat,CDC25B-CDK2 inh
CCc1cc2c(cc3c(=O)n(CC(=O)NCCCN4CC(C)CC(C)C4)ncn32)s1 (centres undefined),0.67,-0.84
COc1ccc2c(ccn3cc4c(c(=O)n(C)c(=O)n4C)c23)c1,.,-2.1
O=C(COc1ccccc1[N+](=O)[O-])Nc1ccc(O)c(-c2nc3ccccc3s2)c1,.,-4
CCN1CCN(c2oc(COc3ccc(C)cc3)nc2C#N)CC1,0.82,0.12
Cc1nc(N2C(=O)c3oc4ccccc4c(=O)c3C2c2ccc(F)cc2)sc1C (centres undefined),-0.04,-0.46
CCN(CC)CCNc1sc(S(=O)(=O)CC)nc1S(=O)(=O)c1ccc(C)cc1,0.21,-1.7
Cn1nc(C(=O)NCc2cccs2)c2c1-c1ccccc1OC2,1.6,-1.6
COCCN(Cc1cccs1)S(=O)(=O)c1cc(-c2cc(C)no2)ccc1C,1,.
CCC1Sc2ccc(S(=O)(=O)CCC(=O)NC3CCCC(C)C3C)cc2NC1=O (centres undefined),-0.51,.
O=C(Cn1cc(SCc2ccccc2F)c2ccccc21)N1CCCC1,1.4,.
CN1CCN(c2nc(NCCc3cccs3)c3cnn(C)c3n2)CC1,2,.
Cn1c(CCc2cccc(NS(C)(=O)=O)c2)nc2ccccc21,0.78,.

Further entries:
canonical_smiles,HIV TAR-Tat,CDC25B-CDK2 inh
Cc1[nH]c(C)c(S(=O)(=O)NC2CCCCC2)c1C(=O)N1CCCC1,0.37,.
CN(C)c1nccc(N(Cc2ccccc2)Cc2ccccc2)c1C#N,0.22,-0.74
COc1ccc(OC)c(N2C(=O)CC(Cc3cc(C)cc(C)c3)C2=O)c1 (centres undefined),1.7,0.96
N#Cc1c(N)sc2c1CCc1ccccc1-2,.,-1.2
CCc1nnc(SCc2nc(-c3ccc(OC)c(OC)c3)oc2C)c2cc3sccc3n12,1.6,-2.4
CC(C)(C)c1ccc(-c2nnc(N)o2)cc1,.,0.02
O=C(O)c1cccc2c1NC(c1ccc(Br)cc1)C1CC=CC21 (centres undefined),-3.1,-1.5
O=C(Nc1csc2ccccc12)N1CCN(C(c2ccccc2)c2ccccc2)CC1,.,-0.84
Cn1c(=O)oc2cc(S(=O)(=O)N3CCCC(C(=O)NC4CCCCC4)C3)ccc21 (centres undefined),-0.75,-0.95
COc1cc(Br)c(CC2c3cc(OC)c(OC)cc3CCN2C)cc1OC (centres undefined),0.98,.
COC(=O)c1ccc(C2CC(=O)Nc3cc(OC)cc(OC)c32)cc1 (centres undefined),-0.26,-0.37
CC1(NC(=O)OCc2ccccc2)CC1NC(=O)OCc1ccccc1 (centres undefined),.,0.07

The list goes on:
canonical_smiles,HIV TAR-Tat,CDC25B-CDK2 inh
O=C(NCc1ccc2c(c1)OCO2)c1ccc(CN2CC(=O)N3CCCCC3C2=O)cc1 (centres undefined),1.4,.
O=C1C2CC=C(Cl)CC2C(=O)N1c1ccc(O)cc1 (centres undefined),.,0.91
COC(=O)c1scc(C)c1NN1C(=O)C=C(C)C1=O,.,-2.2
Cc1ccc(N2C(=O)c3n[nH]c(C)c3C2c2ccc(Br)cc2)cc1 (centres undefined),0.94,.
COc1ccccc1-c1noc(CSc2nc3ccc(C)cc3[nH]2)n1,0.58,2.5
C=CCNc1cc(C)nc2ncnn12,1.1,-0.61
COc1cc2nc(NCCc3ccc(Cl)cc3)n3nc(-c4cccnc4)nc3c2cc1OC,0.87,1.1
CCC(C)NC(=O)CCc1nnc2ccc(N(CC)CC)nn12 (centres undefined),1.4,.
Cc1cc(C)cc(NC(=O)N2CCN(c3cc(N4CCOCC4)nc(C)n3)CC2)c1,0.31,-0.79
CCN(C(=O)Cn1ncc2c([nH]c3ccc(C)cc32)c1=O)c1cc(C)ccc1C,-5.6,.
CN(C)CCNC(=O)c1c(O)nc2ccccn2c1=O,0.49,-0.57
CCN(Cc1ccccc1)c1c(-c2ccc(C)c(C)c2)c(=O)c1=O,0.96,.

Following part.
canonical_smiles,HIV TAR-Tat,CDC25B-CDK2 inh
COCCOC(=O)c1c(C)oc2ccc(NS(=O)(=O)c3cccc4ccccc34)cc12,-0.22,1.7
Cc1nc(-c2ccc(S(=O)(=O)N3CCC(C)CC3)cc2)co1,1.1,.
CCSc1ncc(Cl)c(C(=O)Nc2sc3c(c2C(=O)NCc2cccnc2)CCCC3)n1,-6.7,-1.7
O=C1c2ccccc2Sc2cc(-c3noc(COc4ccccc4)n3)ccc2N1C1CC1,2.3,.
Cc1ccc(-c2nc(Nc3nc(C)cc(C)n3)n[nH]2)cc1,-1.7,-1.2
Cn1c(=O)c2c(nc(NCCCO)n2Cc2ccccc2Cl)n(C)c1=O,0.86,0.99
Cc1sc(-n2cccc2CNCCc2cccs2)c(C(=O)O)c1C,1.4,.
CCOC(=O)C1=C(C)Nc2nc(SCC(C)C)[nH]c(=O)c2C1c1cccc(F)c1 (centres undefined),-0.96,-0.91
COc1ccc(-c2onc(C)c2C)cc1S(=O)(=O)NCc1ccc(C)o1,-0.79,.
Cc1ccc(NS(=O)(=O)c2cc(-c3nc(C)no3)ccc2C)c(Br)c1,0.73,.
O=C(CSc1nc2ncccc2o1)Nc1c(F)cccc1F,1.1,.
c1ccc2c(c1)CCCN2c1ncnc2c1nc1n2CCCC1,0.81,.

(listing goes on)
canonical_smiles,HIV TAR-Tat,CDC25B-CDK2 inh
COC1=CC(=O)OC(CCc2ccc(OC)c(OC)c2)C1 (centres undefined),1.4,.
CCN(CC)S(=O)(=O)c1c(C)nn(S(=O)(=O)c2ccc(F)cc2)c1C,1.8,.
CSc1cccc(NC(=O)N2CCN3CCCCC3C2)c1 (centres undefined),0.65,.
FC(F)(F)c1nnc2sc(-c3ccccc3)nn12,0.05,-0.63
Cn1cnc(S(=O)(=O)Nc2cc(C(F)(F)F)ccc2N2CCOCC2)c1,.,0.64
NC1=Nc2ccc(Cl)cc2C1(O)c1ccccc1 (centres undefined),.,-1.4
O=[N+]([O-])c1cccc(-c2nnc(Cc3cc(F)cc(F)c3)o2)c1,.,-2.4
CCOC(=O)c1c(NC(C)=O)c2c3c(sc2n1Cc1nc(-c2cccs2)oc1C)CCCC3,1.7,.
CCn1nc(C)c(CCNS(=O)(=O)c2ccc(C)c(C)c2)c1C,0.98,-0.94
O=C(Cc1csc2nc(-c3ccc(F)cc3)cn12)NCc1ccc2c(c1)OCO2,1.3,.
O=C(CSc1nc2c([nH]c3ccccc32)c(=O)n1-c1ccc(Cl)cc1)Nc1nccs1,.,1.6
Cc1cccn2cc(-c3ccc(S(=O)(=O)N4CCCCC4)cc3)nc12,.,-1.6

Further entries:
canonical_smiles,HIV TAR-Tat,CDC25B-CDK2 inh
CCc1c(C)nc2ncnn2c1N1CCN(c2cccc(C)c2C)CC1,0.03,.
O=C(O)c1ccc(-c2ccc(Cl)cc2)o1,.,-0.51
CN(C(=O)c1noc2c1COc1ccccc1-2)C1CCCCC1,1.4,-2.3
CCc1cc(C(=O)c2ccc(OC)cc2)c(NC(=O)CSc2nnc(-c3cccs3)n2C)s1,.,-0.62
COCCNC(=O)c1cc2c(Cl)ccc3c2n1CCO3,0.63,.
Cc1nc(N(C)C)ncc1C(=O)O,1.3,-0.63
CCn1c(SCC(=O)Nc2cc(C)on2)nc2c(c1=O)SCC2,0.31,-2
O=C(Cc1nc(-c2cnccn2)no1)N/N=C/c1ccccc1,.,0.94
O=C(Cn1c(=O)oc2cc(Cl)ccc21)N1CCCc2ccccc21,0.39,.
O=C(O)C1C2C=CC(O2)C1C(=O)NCCCn1ccnc1 (centres undefined),-0.29,-1.2
CC(C)CCN(CCS(=O)(=O)N1CCNCC1)S(=O)(=O)c1ccc(Cl)cc1,1.2,.
O=C(COc1ccccc1Br)Nc1nccs1,1,-0.94

(list continues)
compound | HIV TAR-Tat | CDC25B-CDK2 inh
O=C(NCc1noc2ccccc12)Nc1ccccc1F | 0.75 | .
COc1ccc(CN2C(=O)N(Cc3cc(=O)n4ccccc4n3)c3ccccc3S2(=O)=O)cc1 | 1.6 | .
COC(=O)[C@@]1(C)CC[C@]2(C)CC[C@]3(C)C(=CC(=O)C4[C@@]5(C)Cc6c([nH]c7ccccc67)C(C)(C)C5CC[C@]43C)C2C1 (some centres undefined) | . | -4.1
O=C(c1ccncc1)N1N=C(C2CCCCC2)CC1(O)C(F)(F)F (centres undefined) | . | -1.2
C=CCSc1ncc(Cl)c(C(=O)Nc2nnc(CC)s2)n1 | 0.46 | -0.13
CCCCSc1nnc(-c2nonc2NC(C)=O)n1CC | 0.8 | -1.1
C=CCOc1ccc(C2/C(=C(\O)c3ccc(OC)cc3)C(=O)C(=O)N2Cc2ccncc2)cc1 (centres undefined) | 1.7 | -1.2
Cc1cc(C)c2c(N)c(C(=O)NCc3ccco3)sc2n1 | 1.8 | 1.9
O=C(NCc1cccnc1)C(=O)NCC(c1ccc2c(c1)OCO2)N1CCOCC1 (centres undefined) | 1 | .
CC(NC(=O)C1=CC(c2cccs2)=NS(=O)(=O)N1C)c1ccccc1 (centres undefined) | 0.82 | -1.6
Cc1ccc(C)c(Nc2nc3ccccc3c3nncn23)c1 | 0.93 | -1.4
CN1C(=O)C(C)(C)c2cc(S(=O)(=O)Nc3ccccc3)ccc21 | 0.32 | .
CCCN(CCC)C(=O)Cn1ncc2c(=O)oc3ccc(C)cc3c21 | -0.41 | -1.8
CCCc1nn2c(=O)cc(COc3ccc(C(C)(C)C)cc3)nc2s1 | 1.2 | -1.1
Cc1nc(-c2ccc(S(=O)(=O)Nc3ccc(C)c(F)c3)cc2)co1 | 1.1 | .
CC1CC(=O)Nc2cc(S(=O)(=O)Nc3cccc(F)c3)ccc2S1 (centres undefined) | -0.35 | .
Cc1c(NC(=O)c2cc3ccccc3c(=O)s2)c(=O)n(-c2ccccc2)n1C | 1.4 | 1.3
Cc1ccnc(NS(=O)(=O)c2ccc(NC(=O)c3nn(-c4ccc(F)cc4)ccc3=O)cc2)n1 | 0.17 | -0.37
O=C(CSc1nnc(-c2ccc3c(c2)OCO3)o1)Oc1ccccc1 | -0.97 | -2.3
O=C(CSc1ncn[nH]1)c1ccc(O)c(O)c1 | . | -1.9

Single records, from the list above. Order of screens: HIV TAR-Tat	CDC25B-CDK2 inh
Results for CC1CC(=O)Nc2cc(S(=O)(=O)Nc3cccc(F)c3)ccc2S1 (centres undefined) → -0.35	.
Results for CCCCSc1nnc(-c2nonc2NC(C)=O)n1CC → 0.8	-1.1

Following part
compound | HIV TAR-Tat | CDC25B-CDK2 inh
COc1ccc(Nc2nc(N)nc(CN3CCN(c4ccccc4)CC3)n2)c(OC)c1 | 2.3 | .
CC1CCc2c(C(=O)NCCCN3CCOCC3)csc2C1 (centres undefined) | -1.3 | -1.4
Cc1cc2c(cc1S(=O)(=O)N1CCN(Cc3ccc4c(c3)OCO4)CC1)OCC(=O)N2 | 0.34 | .
Cc1ncc(-c2ccc(S(=O)(=O)NCc3ccco3)cc2)o1 | 1.7 | .
Cc1cccc(Cl)c1NNC(=O)Nc1c([N+](=O)[O-])c(C)nn1C | . | -2.5
Cc1nc(N(C)C)ncc1C(=O)NCc1cccs1 | 2.2 | .
COc1ccc(NS(=O)(=O)c2ccc(/C=C/c3onc(C)c3[N+](=O)[O-])cc2)cc1 | 0.42 | .
Cc1cc(C)c2oc(C(=O)Nc3c(C(=O)Nc4ccccc4)oc4ccccc34)cc(=O)c2c1 | -0.93 | 1.2
CSc1ncccc1C1=N/C(=C\c2ccc(C(F)(F)F)cc2)C(=O)O1 | . | -1.6
CCCc1cc(-c2n[nH]c(C)c2-c2ccc3c(c2)OCCO3)c(O)cc1O | 0.61 | 1.4
CN1CCN(NC(NC(=O)c2cccnc2)(C(F)(F)F)C(F)(F)F)CC1 | . | -1.3
CCCc1nc(C)sc1-c1nnc(NC(C)=O)o1 | 2.5 | .
Cc1cccc(C)c1N1C(=O)CSCC1=O | . | -1.6
CC(C)C1C(=O)Nc2ccc(S(=O)(=O)N3CCN(C(c4ccccc4)c4ccccc4)CC3)cc21 (centres undefined) | 0.46 | .
CCc1cc2c3c(c(=O)oc2cc1OC(C)C(=O)O)CCCC3 (centres undefined) | . | -0.82
COC(CN=C(NC#N)SC)OC | . | -1.4
CCOC(=O)CCc1c(C)c(C#N)c2nc3ccccc3n2c1N1CCN(C)CC1 | 1.3 | -2.5
Fc1ccccc1OCCSc1nc2ccccc2o1 | . | -0.91
Cc1ccccc1-c1noc2ncnc(Nc3ccc4c(c3)OCO4)c12 | 1.1 | .
Nc1ccc(S(=O)(=O)O)cn1 | . | 0.8

Next section
compound | HIV TAR-Tat | CDC25B-CDK2 inh
CSc1nc2ccc(NC(=O)c3ccc4snnc4c3)cc2s1 | . | -2.3
Cn1c(=O)n(C)c2cc(SC3CCCCC3)c(NS(=O)(=O)c3cccc4nsnc34)cc21 | 1.4 | .
CN(C(=O)CCc1nc(CN2CCN(S(=O)(=O)c3cccs3)CC2)no1)C1CCCCC1 | -0.5 | .
C=CCn1c(SCC(=O)NCc2ccc3c(c2)OCO3)nc2scc(-c3ccccc3)c2c1=O | 1.4 | -4.9
CC(C)N[C@H]1CS(=O)(=O)C[C@@H]1S(=O)(=O)c1ccccc1 | -1.6 | -2.2
NC(=O)NC(=O)Nc1ccccc1Cl | -1.3 | -0.23

As a working copy, part of the list above:
compound | HIV TAR-Tat | CDC25B-CDK2 inh
Nc1ccc(S(=O)(=O)O)cn1 | . | 0.8
CSc1nc2ccc(NC(=O)c3ccc4snnc4c3)cc2s1 | . | -2.3
Cn1c(=O)n(C)c2cc(SC3CCCCC3)c(NS(=O)(=O)c3cccc4nsnc34)cc21 | 1.4 | .
CN(C(=O)CCc1nc(CN2CCN(S(=O)(=O)c3cccs3)CC2)no1)C1CCCCC1 | -0.5 | .
C=CCn1c(SCC(=O)NCc2ccc3c(c2)OCO3)nc2scc(-c3ccccc3)c2c1=O | 1.4 | -4.9
CC(C)N[C@H]1CS(=O)(=O)C[C@@H]1S(=O)(=O)c1ccccc1 | -1.6 | -2.2
NC(=O)NC(=O)Nc1ccccc1Cl | -1.3 | -0.23
